NPYLR7 ag: mosquito NPYLR7 agonism | HEK293T NPYLR7/Galpha15, GCaMP6s calcium fluorescence | activation, % at 10 µM | 270,000 tested, 0.15% active | AID 1259423; in the data active = activation above about 40%;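 note: 0% = vehicle and 100% = reference agonist at the receptor; some compounds past the cut are filed as inactive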
NPYLR7 ag max-min: also measured in NPYLR7 ag; calls as there; activation, %; measured here: Max-Min RFU normalised activation; some inactives read as strong as hits;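 span of the calcium signal over five minutes; 0% = vehicle and 100% = native peptide agonist; compound fluorescence can raise it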
Numbers without * were called inactive; & = joins results of further samples. A portion of the library; count on the stated rates, not on these rows.

Preview:
Results follow in this order: NPYLR7 ag | NPYLR7 ag max-min
COc1ccc(CCN(C)S(=O)(=O)c2ccc(OC)c(N3CCN(C(=O)[C@H](C)OC(C)=O)CC3)c2)cc1OC
→ 13 | 8
CC(C)CC(=O)N1CC(CN2CCCCC2)C(c2ccccc2)C1 (stereo not given)
→ 6 | 0
CCN(CC1CCN(C(=O)Nc2cccnc2)C1)CC(F)(F)F (stereo not given)
→ 4 | 3
COCCn1cnnc1C(C)NC1CCCC1 (stereo not given)
→ -5 | -5
COC(=O)Cn1c(=NC(=O)c2ccc3ncsc3c2)sc2cc(NC(C)=O)ccc21
→ 0 | -4
O=C1CC2(CCN(Cc3cc4n(n3)CCCNC4)C2)Oc2ccccc21 (stereo not given)
→ 11 | 7

Main list (from the top)
Results follow in this order: NPYLR7 ag | NPYLR7 ag max-min
COc1ccc(CCN(C)S(=O)(=O)c2ccc(OC)c(N3CCN(C(=O)[C@H](C)OC(C)=O)CC3)c2)cc1OC
→ 13 | 8
CC(C)CC(=O)N1CC(CN2CCCCC2)C(c2ccccc2)C1 (stereo not given)
→ 6 | 0
CCN(CC1CCN(C(=O)Nc2cccnc2)C1)CC(F)(F)F (stereo not given)
→ 4 | 3
COCCn1cnnc1C(C)NC1CCCC1 (stereo not given)
→ -5 | -5
COC(=O)Cn1c(=NC(=O)c2ccc3ncsc3c2)sc2cc(NC(C)=O)ccc21
→ 0 | -4
O=C1CC2(CCN(Cc3cc4n(n3)CCCNC4)C2)Oc2ccccc21 (stereo not given)
→ 11 | 7
COCCn1cc(C(=O)NC2CCCC2)c2nn(-c3ccccc3)c(=O)c-2c1
→ 2 | 0
CC(O)CN(CC(C)O)S(=O)(=O)c1ccc2[nH]cc(C(=O)O)c(=O)c2c1 (stereo not given)
→ 1 | 0
NC1=NC(c2coc3ccccc3c2=O)N2C(=N1)Oc1ccccc12 (stereo not given)
→ 9 | 6
COc1ccc(C(=O)N2CCN(C(C(=O)Nc3ccc(C)c(F)c3)C3CCCC3)CC2)c(OC)c1 (stereo not given)
→ 1 | 1
CN=c1scc(C)n1N=Cc1ccc(O)c(O)c1
→ 6 | 3
NC(=O)c1ccc(N=c2oc3ccc(Br)cc3cc2C(N)=O)cc1
→ 3 | 1
O=C(NCCc1ccccn1)c1ccc(-c2cccc(O)c2)nc1NCC1CC1
→ 6 | -3
CC(=O)c1c(C)[nH]c(C(=O)Cn2cnc3sc4c(c3c2=O)CCC(C)C4)c1C (stereo not given)
→ 9 | 12
COCC1(NC(=O)CCN2CCCCO2)CCCC1
→ -1 | -6
CCCCN(C=O)c1c(CC)nc2ccc(C(=O)NCCc3c[nH]c4ccccc34)cn12
→ -2 | -12
O=c1oc(-c2ccc(Cl)c(Cl)c2)nc2ccc(Br)cc12
→ -3 | -2
CN(CCC(=O)N1CCOC(c2ccc(Cl)cc2)C1)S(C)(=O)=O (stereo not given)
→ 10 | 4
O=C(CSc1nnc(N2CCCC2)n1Cc1ccco1)NC1CCCCC1
→ 7 | -1
Cc1ccc(NC(=O)CN(C)C(=O)C2COc3ccccc3O2)cc1 (stereo not given)
→ -4&11 | -5&4
COC(=O)C(C)Sc1nc2c(cnn2Cc2ccccc2)c(=O)[nH]1 (stereo not given)
→ -5 | -5
CC1(C)OCC(C2OC(Nc3ccc(CCCC(=O)N4CCC5(CC4)OCCCO5)cc3)[C@H]3OC(C)(C)O[C@@H]23)O1 (stereo not given in full)
→ -11 | -17
O=C(c1ccco1)N1CCN(C(=O)c2cccs2)CC1
→ 7 | 1
Cc1nn(C)c(C)c1NS(=O)(=O)c1ccc(Cl)cc1
→ 1 | 1
COCCNc1oc2c(c1-c1cccc(F)c1)c(=O)oc1ccccc12
→ -3 | -4
CCOC(=O)CCc1c(C)nc2ncnn2c1N1CCN(C(=O)c2cc(C)nc(Cl)c2)CC1
→ 21 | 12
Cc1ccc(NC(=O)CN(Cc2ccco2)Cc2cccs2)cc1C
→ 0 | -1
O=[N+]([O-])c1ccc(NCCCO)c([N+](=O)[O-])c1
→ -3 | -6
CC(C)Oc1ccc(C(O)=C2C(=O)C(=O)N(c3nccs3)C2c2ccc([N+](=O)[O-])cc2)cc1 (stereo not given)
→ 3 | 1
CCOC(=O)C1CCC(CNC(=O)N2CCCC2c2cc(C)no2)CC1 (stereo not given)
→ 2 | -2
COc1cccc(NC=C2C(=O)OC3(CCCCC3)OC2=O)c1
→ -1 | 0
CN(C)c1nc(Oc2ccc(=O)[nH]n2)nc(N(C)C)n1
→ 2 | -1
CN1CCc2c(sc(NC(=O)c3cccs3)c2-c2nc3ccccc3s2)C1
→ 10 | 7
O=C(Cc1ccc([N+](=O)[O-])cc1)NCc1nnnn1-c1ccc(F)cc1
→ 2 | 0
CCc1cc(N(C)CCc2ccc(OC)c(OC)c2)nc(SCc2ccc(C(=O)NCCc3ccccn3)o2)n1
→ -4 | -1
O=C(Oc1ccccc1C(=O)O)c1ccccc1O
→ 3 | 1
O=[N+]([O-])c1ccc2nc(C(F)(F)F)[nH]c2c1
→ 12 | 16
CCOC(=O)c1cc(C(C)CC(C)(C)C)sc1NC(=O)COCc1ccccc1 (stereo not given)
→ -5 | -6
N#CC(C(=O)CC1CCCO1)c1nc2ccccc2[nH]1 (stereo not given)
→ 0 | 3
CCCCC(=O)Nc1sc2c(c1-c1nc3ccccc3s1)CCN(C(C)=O)C2
→ 3 | 2
O=C(c1cn(CCN2CCOCC2)nn1)N1CCN(C/C=C/c2ccccc2)CC1
→ 6 | 5
Cn1ccnc1SCCNS(=O)(=O)NCc1ccccc1
→ 8 | 7
CN(C)C(=O)c1cc(-c2ccccc2)n(-c2ccccn2)n1
→ 0 | 2
O=S1(=O)CCC(N2CCN(c3ncnc4sc5c(c34)CCC5)CC2)C1 (stereo not given)
→ 18 | 16
Cc1ccc(CN(CCc2c[nH]c3ccccc23)C(=O)CN(CC(C)C)C(=O)CCc2ccccc2)cc1
→ 20 | 26
Cc1ccc(C(=O)C2CCN(C(=O)c3ccc(N4CCOC4=O)cc3)CC2)c(C)c1
→ 9 | 3
O=C(c1ccco1)N1CCC(n2c(-c3ccccc3)nc3ccc(F)cc32)CC1
→ 9 | 9
COC(=O)NC1CCN(c2ccccc2C(=O)N2CCC(C)CC2)CC1
→ -2 | 1
c1cc(CN2CCOCC2)cc(-c2ccc(CN3CCNCC3)cc2)c1
→ 6 | -3
Cc1ccccc1OCC1c2ccsc2CCN1C(=O)CN(CC1CC1)C(=O)Cc1ccccc1 (stereo not given)
→ -1 | 0
CC1(C)CC(=O)C2C(=Nc3[nH]c(=O)[nH]c(=O)c3C2c2ccc(C(F)(F)F)cc2)C1 (stereo not given)
→ 5 | 2
COc1ccc(C(=O)N(Cc2nccn2Cc2ccc(C(F)(F)F)cc2)C(C)C)cc1
→ 13 | 22
Cc1ccc(C(=O)N(C)CC2CCCN(CCc3ccc(Cl)cc3)C2)cc1 (stereo not given)
→ 2 | 3
Cc1nc2sc(C#N)c(N)c2c(C)c1Cl
→ 1 | -3
CCOC(=NCCCN(C)C)NC(=O)c1ccc2c(c1)OCO2
→ 17 | 19
O=S(=O)(c1ccc(SCCOc2ccc(F)cc2)nc1)N1CCCC1
→ -2 | 21
Cc1ncsc1CCC(=O)N1CCOC(C(F)(F)F)C1 (stereo not given)
→ 5 | 2
CC(Oc1ccccc1C#N)C(=O)Nc1cccnc1N1CCCC1 (stereo not given)
→ 2 | 1
O=C1C2C3C=CC(O3)C2C(=O)N1c1ccccc1I (stereo not given)
→ 7 | 0
CN1CCc2cc(C(CNC(=O)NCc3cccs3)N3CCOCC3)ccc21 (stereo not given)
→ -8 | -13

New compounds follow:
Results follow in this order: NPYLR7 ag | NPYLR7 ag max-min
O=C(NCCc1ccccc1F)c1ccc2c(c1)OCCO2
→ 1 | 0
COc1cccc(C(CN2CCN(C(=O)C3CCN(C(C)=O)CC3)CC2)OCc2cccc(Cl)c2)c1 (stereo not given)
→ 2 | -4
Cc1cccc(-c2ncc(CN3CCN(CC(=O)N4CCCC4)CC3)cn2)c1
→ 1 | -1
CNc1cc(NS(=O)(=O)c2ccc(N)cc2)nc(NC)n1
→ -1 | 22
COc1ccc(NC(=O)c2ccc(-c3ccc(-c4noc(C)n4)cc3C)cc2)cc1OCCN(C)C
→ 0 | -11
COc1cc(C#N)ccc1OCCn1c(=O)oc2cccnc21
→ 12 | 6
O=C(COc1cc(Cl)ccc1Cl)Nc1ccc(-n2cnnn2)cc1
→ 8 | 12
Cc1c(Cl)cccc1NC(=O)Nc1ccc(Nc2cc(-n3cccn3)ncn2)cc1
→ -8 | -11
O=C(O)CSCc1nc2sc3c(c2c(=O)[nH]1)CCCC3
→ -7 | -8
Nc1nc(SCC(=O)Nc2ccc(Cl)c(Cl)c2)[nH]c(=O)c1NC(=O)c1ccccc1F
→ 1 | 0
O=C(NCC1CCCO1)c1cc2nc(-c3ccc(Cl)c(Cl)c3)cc(C(F)(F)F)n2n1 (stereo not given)
→ 4 | 4
CCCCN(CC(=O)Nc1cc(-c2ccccc2)nn1-c1ccc(OC)cc1)C(=O)Nc1ccc(Cl)c(Cl)c1
→ 21 | 26
Cc1ccoc1C(=O)N(Cc1ccccc1)CC(C)CO (stereo not given)
→ -5 | -12
CC(CN1C(C)CCCC1C)OC(=O)c1ccc(F)cc1 (stereo not given)
→ -8 | -6
O=C(NCCc1c[nH]c2ccccc12)c1ccccc1-c1ccc(C(F)(F)F)cc1
→ -6 | -11
CC(=O)Nc1ccc(S(=O)(=O)N2CCCC(C(=O)NC3CCCC[C@H]3NC(=O)c3ccccc3)C2)cc1 (stereo not given in full)
→ -1 | -1
COc1ccccc1C(=O)NCC(=O)N=Nc1c(O)[nH]c2ccccc12
→ -3 | -11
CCn1nc(C(=O)N2CCCC2CC2CCCCC2)c2ccccc2c1=O (stereo not given)
→ 10 | 7
Cc1cccc(OCc2ccc(C(N)=O)cc2)c1C
→ 3 | 1
CC1(C(=O)NCc2cccs2)CCN1C(=O)Cc1ccc(Cl)cc1Cl (stereo not given)
→ 14 | 12
CN(C)c1ccc(/C=C2\N=C(c3ccccc3F)OC2=O)cc1
→ -1 | -6
OCC1(Cc2ccccc2)CCNCC1
→ 6 | 4
COc1ccccc1OCC1CN(C(=O)CCc2ccco2)CCO1 (stereo not given)
→ 1 | 13
O=C(NCCN1CCOCC1)NC1CC(=O)N(c2cccc(F)c2)C1 (stereo not given)
→ 2 | -1
COc1cccc2cc(C(=O)NC(C)=O)c(=Nc3ccc(C(C)=O)cc3)oc12
→ -13 | -24
Nc1nccc(N2CCc3onc(-c4ccc5c(c4)OCO5)c3C2)n1
→ 1 | -2
COc1ccc(C(=O)Nc2cc(C)nn2-c2nc3c(c(=O)[nH]2)CCC3)cc1
→ 0 | 0
Cc1cccc(NC(=O)CN(C)CC2COc3ccccc3O2)c1 (stereo not given)
→ 2 | 1
CC(C)c1cc(C(=O)N2CCCC3(CN(C)C(=O)O3)C2)cs1 (stereo not given)
→ 4 | 2
CCOC(=O)c1ccccc1NC(=O)CSc1ccc(-c2sc(-c3cccs3)nc2C)nn1
→ -2 | -9

Shown bar-delimited: part of the list above.
Structure | NPYLR7 ag | NPYLR7 ag max-min
CCn1nc(C(=O)N2CCCC2CC2CCCCC2)c2ccccc2c1=O (stereo not given) | 10 | 7
Cc1cccc(OCc2ccc(C(N)=O)cc2)c1C | 3 | 1
CC1(C(=O)NCc2cccs2)CCN1C(=O)Cc1ccc(Cl)cc1Cl (stereo not given) | 14 | 12

Remaining list, next part:
Results follow in this order: NPYLR7 ag | NPYLR7 ag max-min
COc1cc(C=CC(=O)N(C)CCc2ccccn2)ccc1OCc1ccccc1
→ -3 | -12
CN(Cc1cc2c(cc1O)OCO2)C1CCc2ccccc21 (stereo not given)
→ 1 | 1
CCN(CC)S(=O)(=O)c1ccc(NN=C2C=C(C)CC2)nc1
→ -1 | 0
COc1ccccc1N(CN1C(=O)c2ccccc2C1=O)C(C)=O
→ 0 | -2
O=C(CCCn1nnnc1CN1CCc2ccccc2C1)N1CCSCC1
→ 3 | 1
CN(NC(=O)C1CC(=O)N(N(C)c2ccccc2)C1)c1ccccc1 (stereo not given)
→ -3 | -7
CCOC(=O)c1c(NC(=O)c2cccs2)sc(C(=O)Nc2ccccc2F)c1C
→ -4 | -14
O=C(O)C(Cc1ccccc1)N1C(=O)/C(=C/c2cccc3ccccc23)SC1=S (stereo not given)
→ -4 | -8
COc1c(C)cnc(CN(C)Cc2ncccc2C(=O)O)c1C
→ 1 | 23
O=C(Cc1nc(-c2ccc3c(c2)CCCC(=O)N3)cs1)NCc1ccco1
→ 9 | 8
Cc1ccc(S(=O)(=O)c2cn(C)c3cc(N4CCCC(C)C4)c(F)cc3c2=O)cc1 (stereo not given)
→ -14 | -18
COc1cccc(CN2CCCC(NCc3nccn3C)C2)c1 (stereo not given)
→ 3 | 2
Cc1cccc2c1C(=O)NC1(CCN(S(=O)(=O)c3ccc(F)cc3)CC1)N2
→ 7 | 19
Cc1ccn2c(NC(C)(C)CC(C)(C)C)c(-c3cccc(OC(=O)c4cccc5ccccc45)c3)nc2c1
→ 13 | 15
CCOC(=O)C1=C(C)N=c2s/c(=C/c3ccc(OC)cc3)c(=O)n2C1c1ccc(OC(C)=O)cc1 (stereo not given)
→ -8 | -12
CNC(=O)c1coc(Br)c1
→ 1 | 0
COC(=O)c1ccc(Oc2coc3c4c(ccc3c2=O)OCN(C2CCCC2)C4)cc1
→ 9 | 10
Cc1ccc(N2C(=O)N(c3ccccc3C)C3CS(=O)(=O)CC32)cc1C (stereo not given)
→ 1 | 0
O=C(NCc1ccc(F)cc1)c1cccc(CSc2nc(Cl)cc(N3CCN(Cc4ccc5c(c4)OCO5)CC3)n2)c1
→ 11 | 16
CCOc1cc2c3c(c1)-c1c(sn(-c4cccc(F)c4)c1=S)C(C)(C)N3C(=O)C2=O
→ -5 | -7
Cc1ccc(-n2c(C)c(Br)c3c2CCCC3=O)cc1
→ 3 | -1
c1ccc(-c2nc3ccccn3c2Nc2ccc3c(c2)OCO3)cc1
→ 12 | 1
CCCSc1nnc(-c2c(Cl)c(CC)nn2C)s1
→ -1 | -6
O=C(CCc1ccccc1)N(Cc1nccn1Cc1ccccc1Cl)CC1CCCO1 (stereo not given)
→ -8 | 7

Source: PubChem (Fisher Drug Discovery Resource Center)
